Screening results as filed in PubChem BioAssay.
StopGo reporter: lowers the luciferase signal of an FMDV 2A StopGo reporter; AID 1159524; Potency, µM (highest dose often 57.9 µM), inactives show at the top dose signal change, negative = less light; 410,000 compounds, 1.2% hits; human cells with a luciferase reporter of 2A StopGo recoding; control for the full effect not named in the record; active = well fitted falling curve with a large enough effect; inconclusive = small, poorly fitted or top-dose-only effect; inactive = no such curve, though single readings can be large or run the other way; tested in HEK293T cells; note: nearly all actives have a fitted effect of over 45% in size; luciferase light after 4 h
RE007 growth inh: less growth of the S. pombe RE007 Vpr strain; S. pombe RE007 Vpr strain, BacTiter-Glo ATP luminescence, 24 h; control for the full effect not named in the record; Potency, µM (highest dose often 92.2 µM), for the others: top-dose activity change, negative = less growth; 360,000 compounds, 0.21% hits; active = well fitted falling curve with a large enough effect; inconclusive = small, poorly fitted or top-dose-only effect; inactive = no such curve, though single readings can be large or run the other way;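 note: nearly all actives have a fitted effect of over 50% in size; the assay follows cell death caused by Vpr and the record does not say whether a fall means rescue or toxicity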
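Fission yeast strain RE007, carrying one chromosomally integrated HIV-1 vpr copy, was seeded at OD 0.01 in PMG+AL medium with 23 nL pinned compound. After 24 h at 30 °C and 99% humidity, viability was read by BacTiter-Glo luminescence.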
* = called active by the depositor; [ ] = another dose, or the depositor's remark. % is set by controls: 0 for no effect and ±100 for the full control effect; potency is the fitted concentration of half-maximal effect. An excerpt; the hit share may differ from the screen's.

How did CC1=C(C(=O)N(C(C)C)C(C)C)CC(CC(=O)NCc2cccc3ccccc23)C(=O)N1CCC1=CCCCC1 (configuration not stated) do in these assays?
StopGo reporter: -5%; RE007 growth inh: 13%

How did CC(C)C[C@H]1CN([C@@H](Cc2ccc(O)cc2)CN2CCC[C@@H]2CN2C(=O)C(=O)NC[C@@H]2Cc2ccccc2)C(=O)C(=O)N1CC1CCCCC1 do in these assays?
StopGo reporter: 5%; RE007 growth inh: -24%

Results for C[C@H](CO)N1C[C@H](C)[C@H](CN(C)S(=O)(=O)c2cn(C)cn2)OCc2cnnn2CCCC1=O ?
StopGo reporter: -7%; RE007 growth inh: 5%

Results for Cn1c(=O)cc(OCCCC(=O)Nc2cccc(Cl)c2)c2ccccc21 ?
StopGo reporter: -11%; RE007 growth inh: -6%[18.4 µM]

What do the screens show for `CC1(C(=O)NC2CCN(Cc3ccccc3)CC2)CCN1Cc1ccc(OC(F)(F)F)cc1` (configuration not stated)?
StopGo reporter: 0%; RE007 growth inh: -19%

What do the screens show for `Cc1ccc(S(=O)(=O)N2C[C@H]3[C@H]4C(=O)N(c5ccccc5)C(=O)[C@H]4C[C@H](OC(=O)NCc4ccccc4F)[C@@]3(O)C2)cc1`?
StopGo reporter: inconclusive; RE007 growth inh: -4%

Results for C[C@@H]1CCCCO[C@@H](CN(C)CC2CCCCC2)[C@@H](C)CN([C@H](C)CO)C(=O)c2cc(NS(=O)(=O)c3ccc(Cl)cc3)ccc2O1 ?
StopGo reporter: -5%; RE007 growth inh: 18%

What do the screens show for `CCCOc1cccn2c(N(C)C(=O)c3ccccc3F)c(CC)nc12`?
StopGo reporter: 0%; RE007 growth inh: -22%

How did COC(=O)[C@@]12C[C@@H](CC(=O)N3CCC(c4ccccc4)CC3)C(=O)N(Cc3ccc4c(c3)OCO4)C1=CCC(C)(C)C2 do in these assays?
StopGo reporter: -2%; RE007 growth inh: 0%

Results for COCCNc1nc(Oc2ccccc2)c2sccc2n1 ?
StopGo reporter: -24%; RE007 growth inh: 10%

What do the screens show for `CNC(=O)C1CCC(=O)N1Cc1c[nH]c2ccccc12` (configuration not stated)?
StopGo reporter: -6%; RE007 growth inh: 8%[18.4 µM]

Results for O[C@@H]1CN(Cc2cccs2)[C@@H](c2ccccc2)C[C@H]1n1cc(C2CC2)nn1 ?
StopGo reporter: -12%; RE007 growth inh: -22%

Next section, overlapping the part above by 4 compounds.
How did COC(=O)[C@@]12C[C@@H](CC(=O)N3CCC(c4ccccc4)CC3)C(=O)N(Cc3ccc4c(c3)OCO4)C1=CCC(C)(C)C2 do in these assays?
StopGo reporter: -2%; RE007 growth inh: 0%

Results for COCCNc1nc(Oc2ccccc2)c2sccc2n1 ?
StopGo reporter: -24%; RE007 growth inh: 10%

What do the screens show for `CNC(=O)C1CCC(=O)N1Cc1c[nH]c2ccccc12` (configuration not stated)?
StopGo reporter: -6%; RE007 growth inh: 8%[18.4 µM]

Results for O[C@@H]1CN(Cc2cccs2)[C@@H](c2ccccc2)C[C@H]1n1cc(C2CC2)nn1 ?
StopGo reporter: -12%; RE007 growth inh: -22%

What do the screens show for `Cc1ccccc1-c1cc2nc(NCc3ccc(N(C)C)cc3)n(C)c(=O)c2s1`?
StopGo reporter: -6%; RE007 growth inh: 12%

Results for CC1(Cc2cc(Cl)ccc2C(F)(F)F)C(=O)Nc2cc(C(F)(F)F)ccc21 (configuration not stated) ?
StopGo reporter: 0%; RE007 growth inh: -19%

What do the screens show for `CSc1cnn(CCC#N)c(=O)n1`?
StopGo reporter: -22%; RE007 growth inh: 8%

How did COC(=O)c1ccc2nc(-c3ccc(C)cc3)c(Cc3ccc(C)cc3)n2c1 do in these assays?
StopGo reporter: -7%; RE007 growth inh: -4%

How did CCc1cnccc1CCC(=O)Nc1ccccc1C do in these assays?
StopGo reporter: 2%; RE007 growth inh: 6%

How did COc1ccc(F)cc1-c1cc(C(=O)N2CCc3ccccc3C2)[nH]n1 do in these assays?
StopGo reporter: 9%; RE007 growth inh: -13%

What do the screens show for `Cc1ccc(S(=O)(=O)N2CCOCC2)cc1NC(=O)Cn1nnc(-c2ccccc2)n1`?
StopGo reporter: 1%; RE007 growth inh: 15%

What do the screens show for `CC(C)(C)C1CCN2CCCC(c3ccc([N+](=O)[O-])cc3)(C1)C21OCCO1` (configuration not stated)?
StopGo reporter: inconclusive; RE007 growth inh: 2%

How did CCOC(=O)C1(C)CCCN(C(=O)c2ccccc2OC(F)(F)F)C1 (configuration not stated) do in these assays?
StopGo reporter: -13%; RE007 growth inh: -8%

How did NC(CCc1ccccc1)c1csc(Nc2ccc(C(=O)c3ccccc3)cc2)n1 (configuration not stated) do in these assays?
StopGo reporter: -28%; RE007 growth inh: 33%

How did COc1ccc(-c2sc3ccccc3c2-c2ccc(OC)cc2F)cc1 do in these assays?
StopGo reporter: 4%; RE007 growth inh: 43%

Results for CCNC(=S)N1CCC(C(=O)c2ccc(F)cc2)CC1 ?
StopGo reporter: -16%; RE007 growth inh: -16%

What do the screens show for `CCCc1ccc(C(O)c2ncc(-c3ccc(OC)cc3)[nH]2)cc1` (configuration not stated)?
StopGo reporter: -7%; RE007 growth inh: inconclusive

What do the screens show for `COc1cc(-c2cc(NC(C)=O)c3ncc(-c4ccc(C(C)=O)cc4)n3c2)cc(OC)c1OC`?
StopGo reporter: -13%; RE007 growth inh: 3%[18.4 µM]

What do the screens show for `CN(C(=O)c1ccc(NC(=O)Cc2ccc(NC(=O)C3CCCN(C(=O)C4CC4)C3)cc2)cc1)C1CCCC1` (configuration not stated)?
StopGo reporter: -10%; RE007 growth inh: 1%

What do the screens show for `O=S(=O)(c1ccc(NC(=S)N2CCOCC2)cc1)N1CCCCC1`?
StopGo reporter: 0%; RE007 growth inh: 10%

What do the screens show for `O=C(Cc1cccs1)NCCS(=O)(=O)N1CCN(c2ccccc2)CC1`?
StopGo reporter: -21%; RE007 growth inh: 17%

How did O=C(/C=C/[C@H]1O[C@@H](n2cnc3c(NC(=O)c4ccccc4)ncnc32)[C@H](O)[C@@H]1O)NCc1ccco1 do in these assays?
StopGo reporter: 0%; RE007 growth inh: 6%

How did O=C(C[C@@H]1CC[C@@H]2[C@H](COC[C@H](O)CN2Cc2cccc(C(F)(F)F)c2)O1)NCc1ccc(Cl)cc1 do in these assays?
StopGo reporter: -22%; RE007 growth inh: 6%

How did CCc1nc2ccc(C(=O)NCc3cccs3)cn2c1N(CCC(C)C)CCN(C)C do in these assays?
StopGo reporter: -7%; RE007 growth inh: -17%

What do the screens show for `N#Cc1ccc(-c2nc3c4ccccc4ccn3c2Cc2ccccc2C(F)(F)F)cc1`?
StopGo reporter: 4%; RE007 growth inh: -23%

How did O=[N+]([O-])c1cc2ncccc2c2ncccc12 do in these assays?
StopGo reporter: -19%; RE007 growth inh: -22%

How did O=C(NCCS(=O)(=O)NCc1cccs1)c1ccccc1 do in these assays?
StopGo reporter: 10%; RE007 growth inh: -7%

What do the screens show for `CN(CC(=O)Nc1c(Cl)cccc1Cl)CC(=O)N1CCc2ccccc21`?
StopGo reporter: 0%; RE007 growth inh: -3%

3 structures out of the list, ordered by number of heavy atoms, high to low:
What do the screens show for `CN(C(=O)c1ccc(NC(=O)Cc2ccc(NC(=O)C3CCCN(C(=O)C4CC4)C3)cc2)cc1)C1CCCC1` (configuration not stated)?
StopGo reporter: -10%; RE007 growth inh: 1%

What do the screens show for `O=S(=O)(c1ccc(NC(=S)N2CCOCC2)cc1)N1CCCCC1`?
StopGo reporter: 0%; RE007 growth inh: 10%

How did O=C(NCCS(=O)(=O)NCc1cccs1)c1ccccc1 do in these assays?
StopGo reporter: 10%; RE007 growth inh: -7%

Later entries:
How did CCC1CCCCN1C(=O)COC(=O)c1cncc(Br)c1 (configuration not stated) do in these assays?
StopGo reporter: 4%; RE007 growth inh: 15%

How did N#Cc1ccc(-c2nc3ccc(Br)cn3c2Cc2cccc(F)c2)cc1 do in these assays?
StopGo reporter: -26%; RE007 growth inh: 11%

How did Cc1ccc(NC(=O)c2cc(-c3cc(Cl)ccc3C)n[nH]2)cc1NS(C)(=O)=O do in these assays?
StopGo reporter: 25µM*; RE007 growth inh: -10%

How did O=C(O)Cn1nncc1-c1ccc(C(F)(F)F)cc1 do in these assays?
StopGo reporter: -14%; RE007 growth inh: -11%[18.4 µM]

Results for O=c1[nH]c(=S)[nH]c2c1C(c1ccc(F)cc1)OC(CCc1ccccc1)C2 (configuration not stated) ?
StopGo reporter: -22%; RE007 growth inh: 50%

What do the screens show for `Clc1ccccc1-c1cc2nc(NCc3ccco3)ccn2n1`?
StopGo reporter: 40%[activator]; RE007 growth inh: -13%

What do the screens show for `COc1ccc(-c2cc(NC=O)c3ncc(-c4cc(OC)c(OC)c(OC)c4)n3c2)cc1`?
StopGo reporter: -15%; RE007 growth inh: 8%

How did COc1ccc(NC(=O)COC(=O)C2CCCN2C(=O)OC(C)(C)C)cc1Cl (configuration not stated) do in these assays?
StopGo reporter: -10%; RE007 growth inh: 5%

What do the screens show for `Cc1cc(C)c2cc(C#N)c(NCCNC(=O)c3ccccn3)nc2c1`?
StopGo reporter: -22%; RE007 growth inh: -1%

What do the screens show for `CCOC(=O)C1=CCN(S(=O)(=O)c2ccccc2F)C1c1cccc(Cl)c1` (configuration not stated)?
StopGo reporter: -21%; RE007 growth inh: -13%

What do the screens show for `O=C(Nc1nnc([C@@H]2C[C@H](O)[C@@H](CO)O2)s1)Nc1cccc2ccccc12`?
StopGo reporter: 16%; RE007 growth inh: 1%

How did COc1cccc(-c2cc3nc(NCc4ccccc4F)n(C)c(=O)c3s2)c1 do in these assays?
StopGo reporter: 0%; RE007 growth inh: 13%

How did COc1ccc(C(O)c2ncc(-c3ccccc3F)[nH]2)cc1 (configuration not stated) do in these assays?
StopGo reporter: 102%[activator]; RE007 growth inh: -18%

What do the screens show for `C[C@H](CO)NC(=O)c1[nH]cnc1C(=O)Nc1ccc(CNC(=O)OC(C)(C)C)cc1`?
StopGo reporter: -28%; RE007 growth inh: -14%

Results for CCOc1ccc(Cl)cc1-c1cc(C(=O)Nc2cc(OC)c(OC)c(OC)c2)[nH]n1 ?
StopGo reporter: -16%; RE007 growth inh: -4%

Results for CCCCN(C(=O)CCOc1ccc(OCC)cc1)c1c(N)n(Cc2ccccc2)c(=O)[nH]c1=O ?
StopGo reporter: -23%; RE007 growth inh: 0%

How did CCc1nnc(NC(=O)c2cc(S(=O)(=O)N3CCN(CC)CC3)ccc2Cl)s1 do in these assays?
StopGo reporter: -14%; RE007 growth inh: -5%

How did C[C@@H]1CC[C@@]2(O[C@@H](CCO)C[C@H](O)[C@H]2O)O1 do in these assays?
StopGo reporter: -9%; RE007 growth inh: -13%

Results for COc1ccc(NC(=O)C2(C)CCN2Cc2cccc(OC)c2F)cc1OC (configuration not stated) ?
StopGo reporter: inconclusive; RE007 growth inh: 21%[18.4 µM]

How did C[C@H](CO)N1C[C@H](C)[C@@H](CN(C)C(=O)c2ccc3ccn(C)c3c2)OCc2cnnn2CCCC1=O do in these assays?
StopGo reporter: 0%; RE007 growth inh: 9%

What do the screens show for `O=C(Cc1cccc(NC(=O)C2CCCN(C(=O)c3ccccc3)C2)c1)Nc1cccc(C(=O)N2CCCCC2)c1` (configuration not stated)?
StopGo reporter: -5%; RE007 growth inh: 4%

What do the screens show for `C(=C\c1ccccc1)/CN1CCN(C(c2cc3ccccc3o2)c2nnnn2Cc2ccccc2)CC1` (configuration not stated)?
StopGo reporter: 5%; RE007 growth inh: -7%

What do the screens show for `Oc1c(C(c2ccccc2)N2CCCCC2)ccc2ccccc12` (configuration not stated)?
StopGo reporter: -21%; RE007 growth inh: -7%

Results for COC(=O)C1=C(c2ccccc2OCc2ccccc2)C[C@@H]2CC[C@H]1N2C ?
StopGo reporter: -14%; RE007 growth inh: -5%

What do the screens show for `COc1ccc(CCNC(=O)c2cc(-c3ccccc3)c(N3CCOCC3)s2)cc1OC`?
StopGo reporter: -35%; RE007 growth inh: 3%

How did CCOC(=O)[C@]12Cc3cc(Cl)ccc3[C@H]1N(Cc1ccccc1)C(=O)c1cc(OC)ccc12 do in these assays?
StopGo reporter: 8.9µM*; RE007 growth inh: -30%

How did COC(=O)CCN1CCC2CC1c1cc(Cl)ccc12 (configuration not stated) do in these assays?
StopGo reporter: -8%; RE007 growth inh: -12%

Results for Cc1cc(OCC(=O)OC(C)C(=O)NC2CC2)c(C(C)C)cc1Cl (configuration not stated) ?
StopGo reporter: 0%; RE007 growth inh: -3%

What do the screens show for `COC(=O)[C@]12CCCCC=C1N(Cc1ccccc1)C(=O)[C@H](CC(=O)NCc1ccc(OC)c(OC)c1)C2`?
StopGo reporter: -23%; RE007 growth inh: 3%

How did COc1ccccc1NC(=O)Nc1nc(C(N)CC(C)C)cs1 (configuration not stated) do in these assays?
StopGo reporter: 0%; RE007 growth inh: -9%

Results for C#CCOc1ccc(CNC[C@H]2O[C@@H](n3ccc(=O)[nH]c3=O)[C@H](O)[C@@H]2O)cc1 ?
StopGo reporter: 0%; RE007 growth inh: -21%

Results for COc1cccc(S(=O)(=O)N(C)C[C@H]2OCc3cnnn3CCCC(=O)N([C@H](C)CO)C[C@@H]2C)c1 ?
StopGo reporter: 0%; RE007 growth inh: -12%

How did Cc1cccc(C)c1NC(=O)C1c2ccccc2OCC(=O)N1CCc1c[nH]c2ccccc12 (configuration not stated) do in these assays?
StopGo reporter: -6%; RE007 growth inh: 0%

Results for COc1ccc(CCNCCC(c2ccccc2)c2ccccc2)cc1OC ?
StopGo reporter: inconclusive; RE007 growth inh: -10%
